# Screens from PubChem.
# HNF4A DNA FP: change in binding of human HNF4 alpha to DNA; activity change, % at 10 µM; AID 1224865; 360,000 compounds, 0.3% hits; P41235; HNF4a-FITC DNA binding, fluorescence polarization, 1 h; in the data active means activity change above about 30%, passing the limit was not always enough;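 further: controls were the assay level and a saturating level of protein; the project sought stronger binding though the title names inhibitors; some compounds called inactive have numbers as strong as hits; positive values seem to mean higher polarization but the record does not say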
# FGF22 binding: shifts melting point of recombinant human FGF22; AID 651658; Q9HCT0; recombinant FGF22 thermal shift, SYPRO orange fluorescence; percent of sucrose octasulfate shift, DMSO zero; 340,000 compounds, 1.5% hits; calls only at 9.99 µM;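 active means melting point raised past a set limit in the mean and every replicate; three in four hits are not shown here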
# Target sequence (Q9HCT0 whole entry, looked up): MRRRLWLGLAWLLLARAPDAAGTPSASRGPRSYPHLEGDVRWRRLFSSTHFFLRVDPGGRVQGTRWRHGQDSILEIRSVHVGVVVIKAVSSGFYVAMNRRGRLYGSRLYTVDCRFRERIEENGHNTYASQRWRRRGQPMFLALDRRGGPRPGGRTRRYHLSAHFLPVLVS
# Beta2AR agonist: activates human beta-2 adrenergic receptor causing internalization. P07550. Am2.2-beta2AR cells, FAP receptor internalization, flow cytometry; reference of the scale not given here. response, % (no concentration beside the values). 340,000 compounds, 0.43% hits. AID 504454;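 active means response above a set limit, near 3 SD of response in nonfluorescent compounds, cut at about 42% in these data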;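 further: stock transfer was 100 nL into about 11 µL; a reference agonist was the positive control; negative values mostly stem from fluorescent compounds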
# Target sequence (P07550 whole entry, looked up): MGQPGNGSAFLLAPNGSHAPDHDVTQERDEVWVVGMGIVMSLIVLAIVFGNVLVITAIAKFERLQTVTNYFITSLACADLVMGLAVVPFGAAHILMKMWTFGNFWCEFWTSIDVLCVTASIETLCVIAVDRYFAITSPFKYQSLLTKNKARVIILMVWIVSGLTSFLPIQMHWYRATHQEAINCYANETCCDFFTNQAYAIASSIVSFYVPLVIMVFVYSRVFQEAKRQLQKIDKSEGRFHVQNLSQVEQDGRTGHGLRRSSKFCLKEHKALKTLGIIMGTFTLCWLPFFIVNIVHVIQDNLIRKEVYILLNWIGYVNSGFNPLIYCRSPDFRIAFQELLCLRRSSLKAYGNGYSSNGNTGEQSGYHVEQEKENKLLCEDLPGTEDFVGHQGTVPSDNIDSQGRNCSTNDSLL
# Ecoli growth: inhibitors of Escherichia coli growth; OD600, 23 h; hits give low values; OD600 absorbance (no concentration beside the values); 330,000 compounds, 0.21% hits; AID 1053175;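 active means OD600 absorbance below the run mean of sample wells minus 3.6 SD, in any replicate, cut at about 0.56 in these data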;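 further: stock transfer was 300 nL into about 60 µL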
# ALR H2O2 inh: inhibitors of human sulfhydryl oxidase ALR; 290,000 compounds, 3.8% hits; AID 485317; purified ALR, DTT oxidation, H2O2 HRP-luminol luminescence; P55789; inhibition, % (no concentration beside the values);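 active means mean and each replicate at 75% or more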;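 further: stock transfer was 7.5 nL into about 7.5 µL; 0% = neutral wells and 100% = wells with inactivated enzyme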
# Target sequence (P55789 whole entry, looked up): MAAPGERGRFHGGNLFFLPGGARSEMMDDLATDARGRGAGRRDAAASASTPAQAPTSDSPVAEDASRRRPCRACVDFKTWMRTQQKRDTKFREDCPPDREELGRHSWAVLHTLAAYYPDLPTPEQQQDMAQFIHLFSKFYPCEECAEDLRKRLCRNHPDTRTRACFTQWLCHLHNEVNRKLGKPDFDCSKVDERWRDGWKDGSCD
# LANA-H2A inh: blocks KSHV LANA binding to histone H2A/H2B; cell-free LANA-H2A/H2B peptide, fluorescence polarization; inhibition, % (test concentration not listed); 320,000 compounds, 0.6% hits; in the data active means inhibition mostly above about 10%, no sharp cut-off; inactive means mostly below about 6.7%;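 further: stock transfer was 7.5 nL into about 10 µL; 0% = median of vehicle wells and 100% = median of positive control wells; one replicate is shown; the record names a cut of 25% in any replicate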
# UCH37 DUB inh: inhibitors of human deubiquitinating enzyme UCH37 | 330,000 compounds, 0.33% hits | inhibition, % (concentration not given with the values) | purified proteasome/UCH37, Ub-AMC cleavage fluorescence | Q9Y5K5 | AID 588478;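 active means mean of two replicates above 20%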;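 further: 0% = compound-free wells with enzyme and 100% = wells lacking proteasome; stock transfer was 100 nL into about 20 µL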
#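 Signal – fluorescence, ex 355 nm, em 460 nm · System – Proteasome-bound UCH37 · Input – 0.15 nM proteasome as dispensed · Timing – 30 min preincubation with enzyme, 25 min cleavage at room temperature · Read-out basis – percent inhibition of cleavage signal versus uninhibited and no-proteasome wells · Medium – Tris-HCl pH 7.4 with ATP-MgCl2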
# Numbers without * were called inactive; i = inactive; nt = no result given. Only part of the results is shown (hit frequency here may not be typical).
SMILES,HNF4A DNA FP,FGF22 binding,Beta2AR agonist,Ecoli growth,ALR H2O2 inh,LANA-H2A inh,UCH37 DUB inh
O=C(COC(=O)C1CSC2(c3ccc(F)cc3)CCC(=O)N12)NC(=O)NC1CCCC1 (centres undefined),0.3,i,-6,nt,-11,-8.9,nt
CCc1ccc(-c2ccc(C(=O)O)c(C)n2)cc1,0.1,nt,-5,nt,-1,3.3,2.4
O=C(O)Cc1cc(C(=O)Nc2ccc(Br)cc2)sc1-c1ccccc1,nt,nt,nt,0.67,-3,0.9,6.5
COc1ccc(NS(=O)(=O)c2cccc(NC(=O)c3ccccn3)c2)cc1,0.7,i,4,0.69,-1,-3.0,3.1
Cc1ccc(C(N)=S)c(C)c1,-0.2,nt,-2,0.67,nt,0.0,1.3
Cc1sc2ncnc(SCC(=O)NC(=O)c3cccn3C)c2c1C,3.1,i,13,0.7,-53,-1.1,3.2
Cc1cc(C)nc(SCc2ccc(C(=O)N/N=C/c3ccc(C(=O)O)cc3)cc2)n1,2.9,i,-1,nt,-9,0.5,nt
Cc1cc(C)c(-c2c(O)c3ccccc3n(C)c2=O)c(C)c1,-2.5,i,1,0.68,-14,0.9,-9.2
O=C(CSc1cccc[n+]1[O-])C12CC3CC(CC(C3)C1)C2,0.7,i,3,0.71,8,1.0,4.5
COc1ccc(-c2nnc(SC)n2C)cc1,0.5,nt,7,0.64,-2,5.6,1.8
O=C(c1ccc(N2CCCC2=O)cc1)N1CCN(c2ccccc2O)CC1,-1.1,i,7,0.61,nt,2.3,-0.2
CC1(C)Cc2cccc(OCC(=O)NCc3ccccc3F)c2O1,-2.7,i,-6,0.69,nt,1.0,2.8
N#Cc1c(N)sc2c1CCCCCC2,0.7,nt,10,0.64,99*,5.8,2.6
CC(C)Oc1cccc(C(=O)C2CCCN(C(=O)c3ccsc3)C2)c1 (centres undefined),1.9,i,-4,0.68,-3,2.6,0.2
CCCC(C)NC(=O)c1ccc(-c2ccccc2)cc1 (centres undefined),nt,nt,nt,0.71,-6,-0.9,5.1
CCNS(=O)(=O)c1ccc(NC(=O)c2ccc(Cn3cc(Br)cn3)o2)cc1,-2.4,nt,1,0.67,1,2.7,5.4
Cc1ccc(NC(=O)CNc2ccc(Cl)cc2F)cc1,-0.8,nt,-4,0.72,nt,-4.0,3.7
COc1ccccc1C(=O)Nc1cccc(SC)c1,1.5,nt,2,0.71,nt,0.7,2.0
O=C(Nc1ccc(NC(=O)c2ccccc2O)cc1)Nc1ccc(F)cc1F,1.8,i,4,0.64,1,1.7,-72
CCc1ccc(-c2n[nH]c(=O)c3ccccc23)cc1,0.8,i,-11,0.72,-8,0.3,0.7
CC(=O)c1ccc(-c2ccc(/C=C(/Sc3n[nH]c(C)n3)C(=O)O)o2)cc1,25,i,3,0.71,15,-0.2,21*
CC(=O)Nc1c(NC(=O)CC#N)[nH]c2c(c1=O)c(=O)n(C)c(=O)n2C,-0.4,nt,1,0.71,-1,6.7,2.2
Cc1cccc(NC(=O)c2ccc(C3SCC(=O)N3CCc3ccccc3)cc2)c1C (centres undefined),1.0,nt,10,0.76,-15,0.3,2.4
O=CN1Cc2[nH]c3ccccc3c2N(c2ccc(Cl)cc2)C1=O,-2.0,nt,5,0.64,nt,-1.6,5.1
CC1C(=O)N2CCCc3cc(NC(=O)CC(C)(C)C)cc1c32 (centres undefined),3.6,i,-2,0.71,-28,-1.2,3.8
O=C(COc1ccc(Cl)cc1Br)Nc1nnc(C2CC2)s1,8.2,i,-11,0.68,-1,-3.6,1.8
O=C1N/C(=C/c2cccs2)C(=O)N1Cc1ccc(F)cc1,3.0,i,0,0.68,7,0.9,2.6
O=C(C1CCCN(S(=O)(=O)c2ccccc2)C1)N1CCN(c2ccc(F)cc2)CC1 (centres undefined),2.2,i,-2,0.72,20,1.1,-1.7
CC(=O)N1c2ccccc2C2(O)N=C(C)SC12 (centres undefined),2.5,nt,0,0.69,53,-1.4,-1.0
O=S(=O)(/N=C(/c1ccccc1)N1CCOCC1)c1ccc(F)cc1,-4.3,i,3,nt,-3,0.0,nt
O=C(Nc1nnc(-c2ccc(F)cc2)s1)c1ccco1,2.0,i,-11,0.7,1,0.8,-2.3
COc1ccc(-c2nnc(NC(=O)c3ccc(S(=O)(=O)N4COCC4(C)C)cc3)o2)cc1,-0.6,nt,8,0.71,-5,-2.9,6.9
CN(CC(=O)Nc1ccccc1Cl)C(=O)COC(=O)/C=C/c1ccc(C(F)(F)F)cc1,3.5,i,-2,0.71,1,-1.2,4.1
Cn1cccc1/C=C(\C#N)c1ccccc1,1.3,i,1,0.71,-47,1.8,1.1
Cn1c(Cl)nc2ccccc21,0.5,nt,-14,0.61,5,2.4,1.0
O=C(NC(=S)NCCN1CCOCC1)c1cccc(Cl)c1,-3.9,nt,-27,0.7,5,7.1,2.2
Cc1cccc(NS(=O)(=O)c2cccc(C(=O)N3CC(C)OC(C)C3)c2)c1 (centres undefined),2.9,i,2,0.71,-4,0.0,1.9
NC(=NCc1ccco1)NC(=O)c1ccccc1,1.5,i,-2,0.67,-2,0.7,6.5
CN1C=CC(=O)[C@@H](O)[C@H]1c1ccccc1Br,0.0,i,6,nt,nt,nt,nt
CCOC(=O)c1c(C)[nH]c(C)c1S(=O)(=O)NCC1CCN(Cc2ccccc2F)CC1,-1.9,i,-397,0.72,-3,1.3,1.7
CN(C)C=Nc1nonc1-c1ccc(Cl)cc1,0.3,i,3,0.68,nt,1.2,5.0
Cc1noc(C)c1C(=O)OCC(=O)N(C)C1(C#N)CCCCC1,-1.6,i,-2,0.69,nt,1.2,-2.6
CC(=O)Nc1ccc(C(=O)CSc2nnc(C)o2)cc1,2.5,nt,0,0.75,21,-0.1,4.1
Cc1ccc(O)c(Sc2cc(C)ccc2O)c1,1.7,nt,7,0.66,99*,-1.0,1.5
Cc1c(Cl)cccc1NC(=O)c1cc(C2CC2)on1,2.0,i,-1,0.72,-13,0.3,5.0

# Some of the entries so far, with two lines to a compound:
# Every second line gives: HNF4A DNA FP | FGF22 binding | Beta2AR agonist | Ecoli growth | ALR H2O2 inh | LANA-H2A inh | UCH37 DUB inh
> CC(=O)Nc1ccc(C(=O)CSc2nnc(C)o2)cc1
 : 2.5 | nt | 0 | 0.75 | 21 | -0.1 | 4.1
> NC(=NCc1ccco1)NC(=O)c1ccccc1
 : 1.5 | i | -2 | 0.67 | -2 | 0.7 | 6.5

# Next part.
SMILES,HNF4A DNA FP,FGF22 binding,Beta2AR agonist,Ecoli growth,ALR H2O2 inh,LANA-H2A inh,UCH37 DUB inh
Cc1ccc(NC(=O)C(C)N=C2NS(=O)(=O)c3ccccc32)cc1F (centres undefined),0.5,i,-6,0.67,-3,1.5,-1.4
O=C(O)c1ccccc1Nc1cc(Cl)c2nonc2c1[N+](=O)[O-],-1.2,i,3,0.7,55,0.4,16
Cc1cccc(C)c1N1CCN(c2n[nH]c(N)n2)CC1,5.3,i,0,0.68,96*,3.1,3.5
CCOC(=O)C1CCN(c2c(NCCCN(CC)Cc3ccccc3)c(=O)c2=O)CC1,-1.2,nt,-6,0.74,0,0.9,1.6
CC(=O)N1c2ccc(S(=O)(=O)N3CCCCC3)cc2CC1C(=O)NCc1cccc(Cl)c1 (centres undefined),2.9,i,7,0.66,6,-0.7,-0.4
Cc1ccc(Cc2nc3ccccc3[nH]2)cc1,2.6,i,-8,0.57,-4,4.8,6.6
CCOC(=O)C1=C(C)NC(=O)NC1c1ccc(OC)c(Cl)c1 (centres undefined),-4.7,i,6,0.72,-7,-5.2,1.4
Cc1cc(=O)oc2cc(OCC(O)CN3CCN(c4ccccc4)CC3)ccc12 (centres undefined),-3.4,nt,11,0.69,nt,nt,-16
Cc1ccc(NC(=O)NCc2ccccn2)c(C)c1,0.0,i,-3,0.72,-9,1.2,-1.6
CCN(CC(=O)Nc1ccccc1C(F)(F)F)C(=O)c1ccccc1Sc1ccccc1C#N,-1.2,i,1,0.68,nt,-0.6,-0.7
O=C(NCc1cccs1)c1cc(C2CC2)on1,1.9,i,2,0.73,nt,-3.7,5.4
COc1ccc(NC(=O)Nc2ccc(Cc3ccncc3)cc2)c(OC)c1,-0.9,i,-6,0.65,nt,0.0,2.7
COc1cc(OC)c2c(-c3cccc(-c4cccc(C)c4)c3)cc(=O)oc2c1,-2.9,i,5,0.71,nt,nt,-2.8
COc1ccc2[nH]c(=O)c(CN(CCc3cccc(C)c3)C(C)=O)cc2c1,3.5,nt,-4,0.68,-28,-5.1,-76
Nc1nnc(CC(=O)N/N=C/c2ccc(-c3cccc(C(=O)O)c3)o2)s1,3.1,i,-8,nt,-10,1.2,nt
CCOC(=O)[C@H]1[C@H]2COc3ccc(OC)cc3[C@@H]2N2C(=O)CN(Cc3ccccc3)C(=O)[C@@]12C,-1.7,i,-1,nt,-8,-2.5,6.2
Cc1cccc(COC(=O)Nc2ccc(NC(=O)c3ccccc3Cl)cc2)c1,-1.2,i,6,0.67,4,4.1,-1.6
Nc1ncnc2c1ncn2[C@@H]1O[C@H](CNCc2cccc(C#Cc3ccccc3)c2)[C@@H](O)[C@H]1O,4.3,i,-4,0.72,nt,nt,-9.3
CCc1ccc(OCC(=O)NNC(=O)Cc2c(F)cccc2Cl)cc1,2.3,i,5,0.65,-9,9.1,1.5
Cc1ccc(F)c([C@H]2[C@H]3C=CC[C@@H](C)[C@@H]3C(=O)N2Cc2ccccc2)c1,-0.6,i,10,nt,nt,3.7,1.7
COC(=O)c1ccc(COC(=O)Cc2n[nH]c(=O)c3ccccc23)cc1,-6.3,i,5,0.7,3,2.5,0.8
O=C(COC(=O)Cc1cccs1)Nc1cc(S(=O)(=O)N2CCOCC2)ccc1Cl,-5.4,i,1,0.72,-3,0.0,-3.1
Cc1c(C(=O)NC(=S)N(Cc2ccccc2)c2ccccn2)cccc1[N+](=O)[O-],0.4,i,-4,0.69,nt,-2.2,2.1
Cc1c(OCc2ccc([N+](=O)[O-])cc2)ccc2c3c(c(=O)oc12)CCC3,4.4,nt,4,0.71,-4,1.4,2.2
CC(C)CCNC(=O)/C=C/c1ccc(Br)cc1,2.2,i,-7,0.69,6,1.5,2.6
CC(C)OC(=S)N/C(=N\S(=O)(=O)c1ccccc1)c1ccccc1,-0.1,nt,-2,nt,-3,-0.7,nt
CCOc1ccc(C)cc1S(=O)(=O)NC1CCCCC1,1.2,nt,4,0.7,0,3.4,4.5
COc1ccc2c(C(=O)c3ccc(C)cc3)n(CCC(N)=O)[n+]([O-])c2c1,-0.9,i,-14,0.68,-20,4.0,0.7
Cc1cc(OCC(=O)NCCc2ccc(S(N)(=O)=O)cc2)c2c(C)cc(=O)oc2c1,3.8,i,-2,0.72,-1,2.6,-74
COc1ccc(-c2noc(N3CCC(C(=O)NCCCN4CCCCC4)CC3)n2)cc1,2.2,i,-3,0.71,-7,-2.5,1.4
Cc1cc2[nH]c(=O)cc(-c3ccccc3)n2n1,4.5,i,-2,0.66,33,-2.8,-131
CC(C)(C)CC(=O)N1CCN(c2ccc(S(=O)(=O)N3CCOCC3)cc2[N+](=O)[O-])CC1,-2.0,i,2,0.7,-9,3.4,-1.3
C#CCOCCOCCOCCNc1nc(N2CCN(C(=O)CCCCCCCCCCNC(=O)[C@H]([C@@H](C)CC)n3cc(CCCCCN)nn3)CC2)nc(N2CCN(C(=O)CCCCCCCCCCNC(=O)[C@H](CO)n3cc(CCCCCN)nn3)CC2)n1,14,nt,17,nt,-10,-21,nt
CCCCNC(=S)Nc1ccc(Oc2ccccc2)cc1,-2.6,i,-15,0.63,nt,1.4,-1.7
CCN1CCN(S(=O)(=O)c2cccc(S(=O)(=O)N3CCOCC3)c2)CC1,0.0,i,0,0.68,-5,1.4,2.6
COc1ccc(OCCC(=O)OCC(=O)NC(=O)NC(C)(C)C)cc1,-4.5,nt,1,0.68,2,8.1,0.9
CC(C)CC(NC(N)=O)C(=O)OCC(=O)Nc1ccc(SC(F)F)cc1 (centres undefined),-1.4,i,-2,0.71,72,-0.9,3.1
